# Rango release inh = qHTS Assay for Inhibitors of RanGTP induced Rango (Ran-regulated importin-beta cargo) - Importin beta complex dissociation; Snurportin-1 (Homo sapiens) + GTP-binding nuclear protein Ran (Homo sapiens) + Importin …; Biochemical FRET Rango-importin beta, RanGTP-induced dissociation; Potency, µM (series often up to 46.1 µM), for the others: top-dose activity change, negative = inhibition; hit rate 0.071% among 340,000; AID 540253, 2011; active means falling FRET ratio curve, often poorly fitted, with flat reads before Ran was added; inconclusive means other falling curves, or compound fluorescence or quenching; inactive means flat or rising ratio curve;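 further: potency means the concentration at half of the fitted maximal effect; % of control where 0% means no effect; nearly all actives have a fitted effect of over 45% in size; -100% = wells without RanGTP and RCC1; the record marks most hits as doubtful in a second field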
#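 Rango/importin beta premix (0.1/0.25 uM final), PBS + 1 mM DTT + 0.02% Tween-20 + 0.1% BSA; cpd 5 min RT; FRET pre-read; + RanGTP-RCC1 (0.6 uM Ran, 2 mM GTP, 0.2 uM RCC1); 45 min RT; FRET post-read, ex 430, em 486/530 nm.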
# Rango-impB inh = qHTS Assay for Inhibitors of Rango (Ran-regulated importin-beta cargo) - Importin beta complex formation | hit rate 0.031% among 340,000 | Potency, µM (top dose mostly 92.2 µM), without a hit: at the top dose inhibition of complex formation | AID 540263, 2011 | Rango CFP/YFP FRET sensor + importin beta, 45 min | Importin subunit beta-1 (Homo sapiens), Q14974; active = rising FRET ratio curve, often small or poorly fitted; inconclusive = mostly compound fluorescence or quenching in the first reads; inactive = flat curves in all reads;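 further: potency means the concentration at half of the fitted maximal effect; 0% = DMSO wells and 100% = buffer wells lacking importin beta; nearly all actives have a fitted effect of over 15% in size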
# Target sequence (Q14974 whole entry, looked up): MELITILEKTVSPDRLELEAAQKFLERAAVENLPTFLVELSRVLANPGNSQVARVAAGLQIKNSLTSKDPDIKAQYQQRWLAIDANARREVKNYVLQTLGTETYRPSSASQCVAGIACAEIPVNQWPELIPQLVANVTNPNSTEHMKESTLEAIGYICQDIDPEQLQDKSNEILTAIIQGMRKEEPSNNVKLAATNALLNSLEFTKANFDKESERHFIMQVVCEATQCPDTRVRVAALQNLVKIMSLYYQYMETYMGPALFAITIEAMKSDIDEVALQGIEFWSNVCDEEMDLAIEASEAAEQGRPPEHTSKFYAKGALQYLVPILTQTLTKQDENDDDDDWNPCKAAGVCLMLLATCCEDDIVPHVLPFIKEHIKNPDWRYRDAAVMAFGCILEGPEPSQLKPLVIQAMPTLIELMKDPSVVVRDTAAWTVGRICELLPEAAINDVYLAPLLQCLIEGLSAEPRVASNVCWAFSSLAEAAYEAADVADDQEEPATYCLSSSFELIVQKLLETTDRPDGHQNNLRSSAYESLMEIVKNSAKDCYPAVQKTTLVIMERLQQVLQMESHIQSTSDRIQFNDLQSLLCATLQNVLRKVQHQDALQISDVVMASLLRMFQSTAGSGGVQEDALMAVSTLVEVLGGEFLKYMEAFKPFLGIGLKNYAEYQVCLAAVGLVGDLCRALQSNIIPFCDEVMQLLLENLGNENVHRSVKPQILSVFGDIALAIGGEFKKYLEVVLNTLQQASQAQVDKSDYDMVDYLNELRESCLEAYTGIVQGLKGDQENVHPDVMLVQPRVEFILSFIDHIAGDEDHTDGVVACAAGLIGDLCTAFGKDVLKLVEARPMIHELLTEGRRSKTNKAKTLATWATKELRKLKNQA
#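 Inhibition scored from the CFP 486 nm/YFP 530 nm FRET ratio 45 min after adding 0.125 microM importin beta to 50 nM Rango biosensor preincubated 5 min with compound (room temperature, PBS with DTT, Tween-20, BSA). No-importin wells as positive control.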
# miR-21 FLuc = qHTS Assay for Modulators of miRNAs and/orActivators of miR-21. HeLa miR-21 FLuc reporter, luciferase, 48 h. Potency, µM (titrated, usually from 38.3 µM), without a hit: top-dose reporter change, positive = more light. 340,000 tested, under 10 active. AID 2288, 2010; active = well fitted rising curve with a large enough effect; inconclusive = small, poorly fitted or top-dose-only effect; inactive = no such curve, though single readings can be large or run the other way;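 further: % of control where 0% means no effect; miR-21 action dims this reporter so a rising signal means less miR-21 action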
#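 HeLa cells stably expressing CMV-driven firefly luciferase with a downstream miR-21 binding sequence, endogenously expressing miR-21, were treated with titrations (up to about 40uM final) for 48 hours at 37 degree Celsius. Luciferase luminescence was read after lysis.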
# GLA inh pH 4.5 = qHTS Assay for Inhibitors of Human alpha-Galactosidase at pH 4.5; activity change, negative = inhibition, % at 105 µM; 230,000 tested, under 10 active; purified enzyme, 4-MU-alpha-Gal fluorescence, pH 4.5; Alpha-galactosidase A (Homo sapiens), P06280; inconclusive = small, poorly fitted or top-dose-only inhibition, or a rising curve; inactive = flat fitted curve, though single readings scatter; no compound was filed as active;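 further: 0% = full activity with enzyme and -100% = basal without enzyme; dose as in the result columns while the protocol names 77 µM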
# Active calls of the source: *; ? = inconclusive; nt = no result given; & = joins results of further samples. Some of the compounds tested; the hit share may differ from the screen's.
# Below each compound – Rango release inh	Rango-impB inh	miR-21 FLuc	GLA inh pH 4.5
- CC(C(=O)c1ccc(-c2ccccc2)cc1)[n+]1ccccc1 (centres undefined)
  -1.5%	2.4%	20.7%	-2.3
- O=C(Nc1ccccc1)N(Cc1cccs1)C1CCCC1
  -0.8%	4.4%	-3.0%	-4.7
- CCn1c(SCC(=O)Nc2ccc(C)cc2)nnc1-c1ccccn1
  -11.5%	4.7%	0.6%	-18.5
- CC(C)(C)c1ccc(CNC(=O)c2ccc3c(c2)NC(=O)CO3)cc1
  0.7%	-4.2%	-9.3%	4.0
- COc1ccc2[nH]c(=O)c(CNc3ccccc3)cc2c1
  ?	?	-36.8%	-0.2
- CCN(Cc1ccccc1)C(=O)c1cc(S(=O)(=O)N2CCOCC2)cn1C
  26.5%	-0.9%	1.1%	nt
- CC1(C)CC2(CCCN(C(=S)Nc3ccccc3)C2)CCO1 (centres undefined)
  26.2%	1.2%	0.2%	-3.9
- C=CCSc1nc(N(CC)CC)c2sccc2n1
  1.6%	3.2%	-7.7%	-3.1
- COc1cccc(/C=N/n2nnnc2N)c1OCC#N
  -2.5%	4.2%	nt	nt
- c1ccc(Nc2nc(N3CCOCC3)c3ccccc3n2)cc1
  25.8%	3.6%	16.7%	-8.3
- COc1ccc(NC(=O)CN2CCOCC2)cc1S(=O)(=O)N1CCCCC1
  -3.9%	2.8%	nt	nt
- COc1cnn(-c2cccc(C)c2)c(=O)c1Cl
  -4.1%	0.6%	-13.6%	nt
- COc1ccccc1N/C(N)=N/c1nc(CSc2nc3ccccc3s2)cc(=O)[nH]1
  nt	nt	-24.8%	-2.7
- O=C(N/N=C\c1c(O)ccc2ccccc12)c1ccc(O)cc1
  ?	?	19.1%	nt
- Nc1nc(-c2ccco2)nn1C(=O)c1ccccc1Cl
  -9.8%	-0.3%	2.6%	4.0
- C/C(=N\NC(=O)COc1ccc(C(C)(C)C)cc1)c1ccc(-n2ccnc2)cc1
  2.7%	-0.6%	-44.3%	5.5
- CC1CCc2sc3ncnc(N4CCN(C)CC4)c3c2C1 (centres undefined)
  1.3%	1.0%	-15.2%	nt
- COc1ccc(CC(=O)Nc2cc(S(=O)(=O)N3CCOCC3)ccc2N2CCOCC2)cc1
  1.5%	0.8%	-2.9%	4.4
- Cc1ccc(S(=O)(=O)N2CCOCC2)cc1C(=O)N1CCN(c2ccc(C(F)(F)F)cn2)CC1
  -8.9%	?	nt	nt
- C/C=C(\C)CN1CCC(n2nccc2NC(=O)CCc2ccccc2)CC1
  0.0%	-1.2%	-0.3%	nt
- CCN(CC)c1ccc(NS(=O)(=O)c2cn(C)c(=O)n(C)c2=O)c(C)c1
  22.8%	3.6%	1.3%	nt
- CN1CCN(C(CNC(=O)Nc2ccc(Cl)cc2)c2ccc(F)cc2)CC1 (centres undefined)
  1.8%	-0.7%	-11.9%	nt
- CC(C)OP(=O)(OC(C)C)C1(O)C(=O)Nc2ccc(Br)cc21 (centres undefined)
  7.7%	-1.0%	11.2%	9.6
- COc1ccc(CN(N=O)C2CC(=O)N(c3ccc(OC)cc3)C2=O)cc1 (centres undefined)
  -4.3%	0.3%	-9.7%	-2.9
- Cc1ccc(CNC(=O)CC(C)S(=O)(=O)c2ccc3c(c2)NC(=O)CO3)cc1 (centres undefined)
  -8.9%	2.2%	6.6%	nt
- CCOc1ccc(N(CC(=O)NCC2CCCO2)C(=O)CCC(=O)Nc2ccccn2)cc1 (centres undefined)
  30.0%	-2.8%	-1.5%	5.3
- CCC(C)c1ccccc1N1CC(C(=O)Nc2ccc(C)c(S(=O)(=O)N3CCOCC3)c2)CC1=O (centres undefined)
  4.9%	-3.1%	nt	nt
- C/C(N)=C(/C#N)C(=O)CSc1nnnn1-c1ccc(C)cc1
  ?	-3.9%	-38.4%	-4.5
- O=C(c1cccc(S(=O)(=O)N2CCCC2)c1)N1CCN(c2ccccc2F)CC1
  0.5%	5.3%	17.2%	-3.2
- CC(C)(CNS(=O)(=O)c1ccc2c(c1)OCCO2)N1CCOCC1
  0.6%	1.2%	1.9%	1.0
- CC1=C(C)CC(C(=O)Nc2ccc3c(c2)OCO3)C(C(=O)O)C1 (centres undefined)
  4.3%	0.9%	-12.9%	-8.6
- CC(=O)Nc1ccc(C(=O)Nc2cc(C(F)(F)F)ccc2-n2cnc3ccccc32)cc1
  1.6%	3.0%	-4.5%	11.2
- COc1ccccc1NS(=O)(=O)c1cc(C(=O)NCCN2CCOCC2)ccc1Cl
  15.2%	1.4%	4.4%	13.6
- O=C(CSc1nc2ccccc2s1)NNC(=S)Nc1ccc(Br)cc1
  -7.2%	0.2%	-3.7%	5.5
- Brc1ccc2c(c1)OCCOCCOc1cc(Br)ccc1OCCOCCOCCO2
  12.4%	-3.7%	?	-7.7
- COc1ccc(C(=O)c2cccc(C(=O)c3ccc(OC)c(C)c3)c2)cc1C
  -7.0%	0.9%	1.7%	nt
- CCOC(=O)c1c(C)[nH]c(C(=O)OCC(=O)NC2(C#N)CCCCC2)c1C
  -7.8%	1.8%	nt	nt
- COc1ccc(/C=N/NC(=O)c2ccccc2O)cc1CN1CCOCC1
  -2.7%	3.1%	3.0%	-6.1
- COc1ccc(-n2nc(C(=O)NCC(=O)NCCCN3CCC(C)CC3)c3ccccc3c2=O)cc1Cl
  3.5%	-0.5%	0.7%	nt
- Cc1ccc(-c2csc(Cc3nc(-c4cc5ccccc5oc4=O)cs3)n2)cc1
  16.6%	3.0%	-2.4%	-2.5
- COc1cc(C(=O)NCCCC2CCCC2)ccc1OC1CCN(C(C)=O)CC1
  0.2%	2.1%	3.7%	nt
- CCOc1ccc(N2CC(C(=O)Nc3cc(OCC)c(N4CCOCC4)cc3OCC)CC2=O)cc1 (centres undefined)
  0.2%	-3.6%	nt	nt
- COc1ccc(-c2[nH]ncc2CN(C)C(C)c2ccon2)c(OC)c1 (centres undefined)
  3.0%	-0.3%	5.1%	nt
- O=C(Nc1cc(Cl)ccc1Cl)P(=O)(O)c1ccccc1
  -16.4%	-0.4%	nt	nt
- C/C(CCc1ccc2c(c1)OCO2)=N\NC(=O)c1ccc(C)cc1C
  -3.3%	0.9%	-44.9%	0.0
- Cc1nc2ncccn2c1-c1csc(Nc2ccc(S(N)(=O)=O)cc2)n1
  -25.7%	1.1%	4.7%	nt
- Cc1cc(S(=O)(=O)NC2CCCC2)ccc1F
  2.6%	-4.0%	-3.0%	-2.8
- CN1C(=O)C(CC(=O)N2CCN(C(c3ccccc3)c3ccccc3)CC2)N(C)C1=O (centres undefined)
  -8.2%	-0.8%	-5.6%	0.1
- COc1ccc(C(=O)N2CCN(C)C(C)C2)cc1OC1CCN(C(C)=O)CC1 (centres undefined)
  20.6%	0.1%	1.1%	nt
- COc1ccc(CNC(=S)Nc2ccccc2-c2ccccc2)cc1
  nt	nt	0.8%	-2.5
- COc1cccc(N2CC(C(=O)NNC(=O)c3ccc(Cl)cc3)CC2=O)c1 (centres undefined)
  -11.7%	0.8%	3.8%	nt
- Cc1cc(S(=O)(=O)N(Cc2ccccn2)Cc2ccco2)ccc1-n1cnnn1
  0.4%	-0.5%	0.0%	-2.1
- CCOC(=O)c1c(C)c(-c2ccccc2)n(CC(=O)N2CCN(C)CC2)c1C
  -22.2%	-0.2%	-1.8%	-8.9
- Cc1ccccc1Cn1c(=O)n(-c2ccccc2)c(=O)c2ccc(C(=O)NCc3ccco3)cc21
  nt	nt	-0.5%	7.1
- COC(=O)c1ccc(NC(=O)C2CC(=O)N(c3ccc(C)cc3)C2)cc1 (centres undefined)
  3.9%	-4.2%	-12.5%	-15.4
- COCC(=O)N(Cc1cc2cc(OC)ccc2[nH]c1=O)c1ccc(C)cc1
  -2.7%	3.1%	-2.4%	0.8
- Cc1cc(C)cc(N(CC(=O)NCc2ccccc2)C(=O)CCC(=O)Nc2ccccn2)c1
  12.1%	-5.2%	1.7%	nt
- O=C(NNC1=C(C(=O)C(F)(F)F)CCC1)c1ccccc1Cl
  12.6%	3.1%	-10.8%	4.9
- COC(=O)Cc1c(O)ccn(Cc2cccc(C(F)(F)F)c2)c1=O
  3.0%	-1.3%	-3.5%	1.7
- CCCn1c(SCC(=O)Nc2ccccc2OC)nnc1-c1ccco1
  5.3%	0.3%	28.5%	nt

# Next part.
# Below each compound – Rango release inh	Rango-impB inh	miR-21 FLuc	GLA inh pH 4.5
- N#C/C(=C\c1c(N2CCN(c3ccccc3)CC2)nc2ccccn2c1=O)S(=O)(=O)c1ccccc1
  ?	4.2%	-4.1%	nt
- CCn1nc(C)c(/C=N/NC(=S)Nc2ccc(Cl)cc2Cl)c1C
  17.6%	9.3%	-29.0%	-3.1
- CCn1ccc(C(=O)NC2CCCC2)n1
  0.0%	7.0%	-6.8%	nt
- CCOC(=O)c1c(C)[nH]c(C(=O)CSc2nnc(-c3cccs3)n2Cc2ccccc2)c1C
  -1.3%	0.6%	-10.7%	-2.2
- CCOCCn1[nH]c2ccccc2c1=O
  8.9%	0.2%	nt	nt
- CC(C)C(=O)NC(=S)Nc1ccccc1F
  -9.1%	7.1%	-6.4%	-24.8
- COC(=O)CN(c1cccc(F)c1)S(C)(=O)=O
  22.2%	5.5%	-4.1%	5.9
- CN1C(C(=O)Nc2cccc(O)c2)=CC(c2ccco2)=NS1(=O)=O
  3.3%	-0.4%	-5.4%&-5.7%	nt
- COc1ccc2[nH]c(=O)c(CN(C(=O)c3cccnc3)c3ccc(C)cc3)cc2c1
  0.1%	1.6%	-6.8%	5.3
- Cc1cccc(NC(=O)CCN2C(=O)c3ccccc3S2(=O)=O)c1C
  10.1%	0.3%	1.4%	nt
- O=C(Cn1c(=O)c2c(ncn2C2CCCC2)n(Cc2ccccc2)c1=O)N1CCc2ccccc21
  5.9%	-0.3%	0.3%	-5.0

# Twelve consecutive compounds out of the list so far:
# Below each compound – Rango release inh	Rango-impB inh	miR-21 FLuc	GLA inh pH 4.5
- Cc1cc(C)cc(N(CC(=O)NCc2ccccc2)C(=O)CCC(=O)Nc2ccccn2)c1
  12.1%	-5.2%	1.7%	nt
- O=C(NNC1=C(C(=O)C(F)(F)F)CCC1)c1ccccc1Cl
  12.6%	3.1%	-10.8%	4.9
- COC(=O)Cc1c(O)ccn(Cc2cccc(C(F)(F)F)c2)c1=O
  3.0%	-1.3%	-3.5%	1.7
- CCCn1c(SCC(=O)Nc2ccccc2OC)nnc1-c1ccco1
  5.3%	0.3%	28.5%	nt
- N#C/C(=C\c1c(N2CCN(c3ccccc3)CC2)nc2ccccn2c1=O)S(=O)(=O)c1ccccc1
  ?	4.2%	-4.1%	nt
- CCn1nc(C)c(/C=N/NC(=S)Nc2ccc(Cl)cc2Cl)c1C
  17.6%	9.3%	-29.0%	-3.1
- CCn1ccc(C(=O)NC2CCCC2)n1
  0.0%	7.0%	-6.8%	nt
- CCOC(=O)c1c(C)[nH]c(C(=O)CSc2nnc(-c3cccs3)n2Cc2ccccc2)c1C
  -1.3%	0.6%	-10.7%	-2.2
- CCOCCn1[nH]c2ccccc2c1=O
  8.9%	0.2%	nt	nt
- CC(C)C(=O)NC(=S)Nc1ccccc1F
  -9.1%	7.1%	-6.4%	-24.8
- COC(=O)CN(c1cccc(F)c1)S(C)(=O)=O
  22.2%	5.5%	-4.1%	5.9
- CN1C(C(=O)Nc2cccc(O)c2)=CC(c2ccco2)=NS1(=O)=O
  3.3%	-0.4%	-5.4%&-5.7%	nt

# Bioassay records: PubChem BioAssay, National Center for Advancing Translational Sciences (NCATS)
